StopGo reporter: lowers the luciferase signal of an FMDV 2A StopGo reporter; human cells with a luciferase reporter of 2A StopGo recoding; control for the full effect not named in the record; Potency, µM (titrated, usually from 57.9 µM), without a hit: at the top dose signal change, negative = less light; 410,000 compounds, 1.2% hits; AID 1159524; active = well fitted falling curve with a large enough effect; inconclusive = small, poorly fitted or top-dose-only effect; inactive = no such curve, though single readings can be large or run the other way; tested in HEK293T cells; note: nearly all actives have a fitted effect of over 45% in size; luciferase light after 4 h
RE007 growth inh: less growth of the S. pombe RE007 Vpr strain; S. pombe RE007 Vpr strain, BacTiter-Glo ATP luminescence, 24 h; control for the full effect not named in the record; Potency, µM (highest dose often 92.2 µM), inactives show at the highest dose activity change, negative = less growth; 360,000 compounds, 0.21% hits; AID 651644; active = well fitted falling curve with a large enough effect; inconclusive = small, poorly fitted or top-dose-only effect; inactive = no such curve, though single readings can be large or run the other way;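 note: nearly all actives have a fitted effect of over 50% in size; the assay follows cell death caused by Vpr and the record does not say whether a fall means rescue or toxicity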
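Fission yeast RE007 carrying one integrated HIV-1 vpr copy, seeded at OD 0.01 in PMG+AL medium with 23 nL pinned compound. Grown 24 h at 30 degrees; viability read by BacTiter-Glo luminescence after 5 min.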
* marks the source's active call; other numbers are inactive results; ? = inconclusive; [ ] = another dose, or the depositor's remark. % is set by controls: 0 for no effect and ±100 for the full control effect; potency is the fitted concentration of half-maximal effect. The list is partial; count on the stated rates, not on these rows.

SMILES	StopGo reporter	RE007 growth inh
Cc1ccccc1NC(=O)Cc1nc(COC(=O)c2nccnc2N)cs1	-21.2%	-11.3%
CC(=O)NCCNC(=O)C1(C)Cc2c(-c3ccc(C(N)=O)cc3)ccnc2O1 (stereo not drawn)	-8.3%	3.5%[18.4 µM]
CCOC(=O)C1=CCN(S(=O)(=O)c2ccc(C)cc2)C1c1cccc(Br)c1 (stereo not drawn)	-27.4%	-2.9%
Fc1cccc(Cc2c(-c3ccccc3)nc3ccc(Br)cn23)c1	16.9%	-20.1%
O=C1NC[C@@H](Cc2ccc(O)cc2)N(CCCCC2CCCCC2)C1=O	-12.8%	-4.3%
Cc1ccc(NC(=O)CN(C)C(=O)c2cccc(S(=O)(=O)N3CCc4ccccc4C3)c2)cc1	13.3%	-2.6%
COC(=O)C[C@@H]1C[C@H]2c3cc(NS(C)(=O)=O)ccc3O[C@H]2[C@H](CO)O1	-0.3%	14.5%
CC1(C(=O)Nc2ccc3c(c2)OCCO3)CSCC(=O)N1CC(F)(F)F (stereo not drawn)	-10.7%	-15.5%
Cn1c(=O)c2c(-c3ccccc3)n(-c3ccccc3)cc2n(C)c1=O	?	-5.9%
CCc1nc2c(OCCOc3ccccc3)cccn2c1N(C)C(=O)c1ccc(OC)cc1	-16.2%	-21.8%
CC(=O)c1cccc2c1OC(C)C(=O)N2Cc1ccc(Cl)cc1 (stereo not drawn)	-16.0%	-2.8%
CCNC(=O)C1CCCN(Cc2ccc(C)c3ccccc23)CC1 (stereo not drawn)	-23.5%	-10.8%
C[C@H](CO)N1C[C@H](C)[C@@H](CN(C)C(=O)CCCN(C)C)OCc2cn(nn2)CCCC1=O	7.6%	2.8%
Cc1cc(C)cc(CC(=O)N2CCC2(C)C(=O)NS(=O)(=O)c2cccc(F)c2)c1 (stereo not drawn)	-26.6%	-6.5%[18.4 µM]
O=C(O)c1cc2c(ncc3c(=O)n(-c4ccccc4)[nH]c32)s1	-16.8%	0.0%[18.4 µM]
CN(C(=O)c1cccc(NC(=O)Cc2cccc(NC(=O)C3CCN(C(=O)C4CCCC4)CC3)c2)c1)C1CC1	-23.3%	-8.2%
O=C(c1ccc(N2C(=O)c3ccccc3C2=O)cc1)N1CCN(S(=O)(=O)c2ccccc2F)CC1	?	1.1%
O=C1NC[C@@H](CCCCN2CCN(CCc3ccc(O)cc3)C(=O)C2=O)N(CCC2CCCCC2)C1=O	-10.2%	-4.0%
O=C(c1cccc(Br)c1)N1CCN(c2ccccn2)CC1	-3.6%	-10.0%
O=C1OC(O)c2cccc3cccc1c23 (stereo not drawn)	-3.3%	14.6%
CC1Cc2ccccc2N1C(=O)CN1CCN(S(=O)(=O)c2ccc3c(c2)OCCCO3)CC1 (stereo not drawn)	-29.0%	4.1%
CCOC(=O)[C@]12CCC=C1N(Cc1ccc(Cl)cc1Cl)C(=O)[C@H](CC(=O)NCCc1ccccc1OC)C2	-9.5%	23.5%
CCOc1ccccc1NC(=O)c1cc2ccccc2o1	24.4%	-13.3%
Cc1onc(-c2c(F)cccc2Cl)c1C(=O)N[C@@H]1C(=O)N2C(C(=O)O)C(C)(C)S[C@H]12 (stereo partly drawn)	-1.0%	-8.0%
c1ccc(C[C@H]2CN=C(Nc3ccccc3)N2CC2CCCC2)cc1	-17.3%	-16.6%

Some of these compounds in order of length of the SMILES, smallest number first:
SMILES	StopGo reporter	RE007 growth inh
CCOc1ccccc1NC(=O)c1cc2ccccc2o1	24.4%	-13.3%
O=C(c1cccc(Br)c1)N1CCN(c2ccccn2)CC1	-3.6%	-10.0%
CC(=O)c1cccc2c1OC(C)C(=O)N2Cc1ccc(Cl)cc1 (stereo not drawn)	-16.0%	-2.8%
O=C(O)c1cc2c(ncc3c(=O)n(-c4ccccc4)[nH]c32)s1	-16.8%	0.0%[18.4 µM]
CC1(C(=O)Nc2ccc3c(c2)OCCO3)CSCC(=O)N1CC(F)(F)F (stereo not drawn)	-10.7%	-15.5%
CCOC(=O)C1=CCN(S(=O)(=O)c2ccc(C)cc2)C1c1cccc(Br)c1 (stereo not drawn)	-27.4%	-2.9%
CC1Cc2ccccc2N1C(=O)CN1CCN(S(=O)(=O)c2ccc3c(c2)OCCCO3)CC1 (stereo not drawn)	-29.0%	4.1%
Cc1ccc(NC(=O)CN(C)C(=O)c2cccc(S(=O)(=O)N3CCc4ccccc4C3)c2)cc1	13.3%	-2.6%
COC(=O)C[C@@H]1C[C@H]2c3cc(NS(C)(=O)=O)ccc3O[C@H]2[C@H](CO)O1	-0.3%	14.5%
O=C(c1ccc(N2C(=O)c3ccccc3C2=O)cc1)N1CCN(S(=O)(=O)c2ccccc2F)CC1	?	1.1%
C[C@H](CO)N1C[C@H](C)[C@@H](CN(C)C(=O)CCCN(C)C)OCc2cn(nn2)CCCC1=O	7.6%	2.8%

Remaining list, next part
SMILES	StopGo reporter	RE007 growth inh
CCOC(=O)[C@]12CCC=C1N(CCC1=CCCCC1)C(=O)[C@H](CC(=O)N1CCCCC1)C2	-18.7%	-13.2%
COc1ccc(C(O)c2nc(-c3cccc(F)c3)cs2)cc1 (stereo not drawn)	-7.9%	-5.0%
COc1ccc(CC(N)c2csc(NC(=O)c3cc(C(C)(C)C)oc3C)n2)cc1 (stereo not drawn)	0.0%	19.1%
O=C(O)c1cnc2ccc(Cl)cc2n1	10.1%	-22.4%
CC1(C(=O)NS(=O)(=O)c2ccccc2)CCN1C(=O)C/C=C/c1ccccc1 (stereo not drawn)	-14.2%	2.8%
c1ccc(SC23CCCCN(CCC2)[C@]32CO2)cc1 (stereo partly drawn)	0.0%	4.7%
COc1ccc(OCC(=O)N2CCN(S(=O)(=O)c3ccc4c(c3)OCCO4)CC2)cc1	?	8.5%
O=C(NCc1ccccc1)C(c1cc2ccccc2o1)n1c(=O)c(-c2ccccc2)nc2ccccc21 (stereo not drawn)	20.5%	11.2%
Cc1cc(C)c2c(CN3CCN(c4ccccc4F)CC3)cc(=O)oc2c1	-16.2%	1.9%
CCc1nc2ccc(C(=O)N(C)Cc3ccccc3)cn2c1N(CC)CCN(C)C	-8.7%	1.3%[18.4 µM]
O=C(NCC(=O)N1CCN(Cc2c(F)cccc2Cl)CC1)c1cccs1	-9.9%	7.0%
COC(=O)C1=C(c2ccc(OCc3ccccc3)cc2)C[C@@H]2CC[C@H]1N2C(=O)NCc1ccc(C(C)(C)C)cc1	-23.3%	-5.2%
O=C1OC(COCC#Cc2ccccc2)CN1c1ccccc1 (stereo not drawn)	-5.0%	?
CCCS(=O)(=O)NC(=O)C1(C)CCN(C(=O)c2cccs2)C1 (stereo not drawn)	0.7%	14.9%
CC1(Oc2cccc(F)c2)CCN(Cc2ccc(-c3ccccc3)o2)C1 (stereo not drawn)	-12.0%	-24.7%
O=C1OC(c2ccc(F)cc2)CC1CN1CCOCC1 (stereo not drawn)	-2.5%	-22.4%
O=C(C[n+]1cccc(C(=O)Nc2ccccc2)c1)c1ccccc1	-12.5%	-9.8%
CCOC(=O)[C@]12CCC=C1N(Cc1ccccc1)C(=O)[C@H](CC(=O)N1CCN(C(=O)c3ccco3)CC1)C2	-8.9%	7.6%
CC1(C(=O)NCc2ccccc2Br)CCN1Cc1ccc(-c2ccccn2)cc1 (stereo not drawn)	?	-14.4%[18.4 µM]
O=C1c2ccccc2C(=O)N1CC(O)COc1cccc2ccccc12 (stereo not drawn)	-2.3%	-9.9%[18.4 µM]
CCC1Cc2[nH][nH]c(=O)c2C(CC)O1 (stereo not drawn)	-20.2%	2.3%
O=[N+]([O-])c1ccc(COc2cccc(CN3CCOCC3)c2)cc1	-22.9%	-13.7%
CCOC(=O)[C@]12CCC=C1N(Cc1ccco1)C(=O)[C@H](CC(=O)NCCCN1CCCC1=O)C2	-21.1%	6.5%
COc1ccc(CNC(=S)Nc2cccc(Cl)c2)cc1	43.8%[activator]	-0.9%
CC1(C(=O)NS(=O)(=O)c2ccc(C#N)cc2)CCN1C(=O)C1(c2ccc(Cl)cc2)CC1 (stereo not drawn)	20.8%	2.7%

Next part.
SMILES	StopGo reporter	RE007 growth inh
Cc1noc(-c2ccccc2)c1NC(=O)Nc1ccc2nc([C@H]3C[C@H](O)[C@@H](CO)O3)[nH]c2c1	-7.2%	7.6%[18.4 µM]
C[C@H]1CN([C@@H](C)CO)C(=O)c2cc(Br)cnc2O[C@H]1CN(C)C(=O)c1ccccn1	-7.3%	4.8%
CC1(C(=O)NCc2ccccc2)Cc2c(-c3ccc(C(N)=O)cc3)ccnc2O1 (stereo not drawn)	-15.4%	8.4%
O=S1(=O)CC(N2CCSCC2)CN1Cc1cn(Cc2cccc(C(F)(F)F)c2)nn1 (stereo not drawn)	-12.8%	-5.6%
O=C(CCN1CCCO1)N1CCCC(Nc2cccc(F)c2)C1 (stereo not drawn)	-9.1%	-18.2%
CCCC(=O)N1CCCC(c2cc(C(=O)Nc3ccccc3)no2)C1 (stereo not drawn)	20µM*	-24.3%
COC(=O)/C=C1\OCc2c(F)cccc21	-8.1%	-12.7%
N#Cc1cccc(NC(=O)c2cc(C3CCCCN3C(=O)c3ccc4c(c3)CCO4)on2)c1 (stereo not drawn)	-6.1%	27.7%
N#CCC(=O)Nc1ccc(C(=O)OCC(=O)Nc2cc(-c3ccccc3)nn2-c2ccccc2)cc1	-22.8%	-7.3%
O=C(C[C@@H]1CC[C@@H]2[C@H](COC[C@H](O)CN2C(=O)Nc2ccc(F)cc2)O1)NCCc1ccncc1	-4.8%	8.5%
C[C@H](CO)N1C[C@H](C)[C@@H](CN(C)S(=O)(=O)c2ccc(Cl)cc2)OCc2cnnn2CCCC1=O	-10.9%	-9.5%
Nc1ncnc2c1nc(Sc1ccc(Cl)cc1)n2[C@@H]1O[C@@H]2COP(=O)(O)O[C@H]2[C@H]1O	-14.8%	-2.7%[18.4 µM]
Cc1ccc(NC(=O)c2ncn(CCCNCCN3CCOCC3)n2)cc1C	-11.4%	13.4%
CN1CCCC1CN1CCCC1 (stereo not drawn)	-11.3%	1.5%
CC(=O)c1cc2cccc(OC3(C)CCN(Cc4ccc(-c5ccccn5)cc4)C3)c2o1 (stereo not drawn)	0.0%	-20.0%
CN(Cc1ccccc1)C(=O)c1ccc(NC(=O)Cc2ccc(NC(=O)C3CCCN(C(=O)C4CCCC4)C3)cc2)cc1 (stereo not drawn)	-21.6%	7.0%
O=C(Cc1ccc(NC(=O)C2CCN(C(=O)CCc3ccccc3)CC2)cc1)Nc1ccc(C(=O)N2CCOCC2)cc1	-7.1%	-5.1%
CC(C)C(C)N(Cc1cccc(C(=O)O)c1)C(=O)c1ccc2ccccc2n1 (stereo not drawn)	21.3%	28.5%
Cc1nn(CC(C)C)c(Cl)c1C(=O)NC1CCCC1	3.6%	9.0%
COC(=O)[C@@]12C[C@@H](CC(=O)NCc3ccccc3)C(=O)N(Cc3ccccc3)C1=CCC(C)(C)C2	-1.9%	?
CC1(C(=O)O)CCCN(C(=O)c2ccc3c(c2)C(C)(C)CCC3(C)C)C1 (stereo not drawn)	1.2%	-3.2%[18.4 µM]
COCCNC(=O)C1CCCN(C(=O)c2nc3ccccc3s2)CC1 (stereo not drawn)	-2.6%	-3.5%
CCC(=O)N1CCN(c2cc(N3CCCC3)c(F)cc2[N+](=O)[O-])CC1	-25.5%	7.7%
CCN(CC)S(=O)(=O)c1ccc(O)c(C(=O)OCC(=O)N2CCCc3ccccc32)c1	-21.1%	-18.5%
CC1CCc2cccc3c(O)cc(=O)n1c23 (stereo not drawn)	-13.2%	25.3%

(more compounds)
SMILES	StopGo reporter	RE007 growth inh
COc1ccc(CCN2CC(C(=O)OCC(=O)c3c(N)n(CC(C)C)c(=O)n(C)c3=O)CC2=O)cc1OC (stereo not drawn)	?	4.6%
Nc1ncnc2c1ncn2[C@@H]1O[C@H](C(=O)N2CCN(Cc3ccccn3)CC2)[C@@H](O)[C@H]1O	0.0%	4.8%
O=C1NC(=O)C(=O)N1	-15.8%	2.3%[18.4 µM]
CC1(C(=O)NS(=O)(=O)C2CC2)CCCN(C(=O)c2cccnc2Oc2ccccc2)C1 (stereo not drawn)	-20.7%	-1.7%
CC(Oc1cccc2cccnc12)C(=O)N/N=C/c1ccc2c(c1)OCO2 (stereo not drawn)	0.4%	2.6%
C[C@H](CO)N1C[C@H](C)[C@@H](CN(C)C(=O)Nc2ccc(F)cc2)Oc2ncc(-c3ccc(F)cc3)cc2C1=O	52.1%[activator]	-1.0%
CC(=O)Nc1cc(-c2ccncc2)cn2c(-c3ccccc3)cnc12	0.0%	0.7%
CC(C)(C)n1nnnc1C(c1ccccc1)N1CCN(CCN2CCOCC2)CC1 (stereo not drawn)	-17.9%	1.0%
CCCCOCCCNC(=O)C[C@@H]1C[C@@]2(C(=O)OC)CCCCC=C2N(Cc2ccc(Cl)cc2Cl)C1=O	-9.8%	14.2%
CCOC(=O)C1=CC[C@@H](c2cccc(Br)c2)N(S(=O)(=O)c2ccc(F)cc2)[C@H]1c1cccc(Cl)c1	-1.9%	3.8%
COc1cc(Cn2c3ccc(NC(=O)CCc4cccnc4)cc3c(=O)n2C)ccc1F	0.0%	-3.4%[18.4 µM]
N#Cc1ccc(-c2nc3c4ccccc4ccn3c2CC2CCCCC2)cc1	-12.3%	-26.2%
COc1cc(CCc2ccccc2)c(C(=O)O)c(O)c1CC=C(C)C	?	?
O=C(C1CCCCC1)N1C[C@@H](O)[C@H](n2cc(-c3ccc(F)cc3)nn2)C[C@@H]1c1ccc(Cl)cc1	-1.9%	4.4%
COC(=O)N(C)C[C@H]1OCc2cnnn2CCCC(=O)N([C@@H](C)CO)C[C@@H]1C	-7.6%	-8.0%
